Source: PubChem BioAssay
MgrA-DNA mod: alters Staphylococcus aureus MgrA binding to DNA | inhibition, %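 (about 10 µg/mL by stock and volumes)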 | fluorescence polarization | 84,000 tested, 0.13% active;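 active = above 50% in either of two replicates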;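 note: 0% = protein plus DNA without compound and 100% = DNA alone without protein; higher means less MgrA bound to DNA so lower polarization; one replicate is shown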
S aureus helic: blocks Staphylococcus aureus DNA helicase. purified S. aureus helicase, fluorescence unwinding assay; about half of the hits fall short of the stated cut. inhibition, %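 (tested at about 80 µM)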. 120,000 tested, 0.05% active;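 active = both duplicates at 50% or more, or one of them with a favoured structure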;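 note: 0% = mean of negative control wells and 100% = mean of positive control wells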
* marks the source's active call; other numbers are inactive results; . = no result given.

The opening 22 compounds, to show the layout:
SMILES	MgrA-DNA mod	S aureus helic
CCOC(=O)/C(C#N)=C(\C)c1ccc(NC(C)=O)cc1	-0.2	.
COc1cc2c(cc1OC)/C(=C/C(N)=O)NC(C)(C)C2	3.7	1
O=C(c1ccc(NS(=O)(=O)c2ccccc2)cc1)N1CCN(Cc2ccc3c(c2)OCO3)CC1	3.5	27
Cc1nc2c(c(C)c1CCC(=O)NCC(N)=O)c(=O)n(C)c(=O)n2C	.	-19
COc1ccc(NC(=O)CC(NC(C)c2ccccc2)C(=O)O)cc1 (stereo not drawn)	.	26
C=CCC1C(=O)N(S(=O)(=O)c2ccc(Cl)cc2)N=C1CCC (stereo not drawn)	2.1	.
CCc1ccccc1Nc1nc(N)nc(CSc2nncn2C)n1	.	-9
CC(=O)N1CC(C)Oc2ccc(S(=O)(=O)NC(C)c3ccccc3)cc21 (stereo not drawn)	.	29
O=C1c2ccccc2NC(c2ccccc2)N1NS(=O)(=O)c1ccccc1 (stereo not drawn)	0.8	-5
N#CC(C#N)=CNc1cc(-c2ccc(Cl)cc2)sc1C(N)=O	.	-11
Cc1cc(C)nc(Nc2nc3ccccc3c(=O)[nH]2)n1	1.4	1
Cc1ccc(NC(=O)Nc2ccc(SC(F)F)cc2)cc1	.	-21
O=C(NC1CCCC1)c1cc(-c2ccccc2O)no1	1.9	-3
CC(C)CCn1c(=O)c2ccccc2n2c(CN(C)Cc3ccccc3)nnc12	.	-2
C=CCNC(=O)C(C)Oc1ccccc1 (stereo not drawn)	-1.4	-4
c1ccc(-c2csc(Cc3c[nH]c4ccccc34)n2)cc1	0.0	-1
O=S(=O)(NC(=S)NC1CCCCC1)c1ccccc1	.	3
Cc1cc2c3c([nH]c2cc1S(=O)(=O)N(Cc1ccco1)C1CCCCC1)CCCC3=O	.	12
Cc1nc2cccnc2n1-c1ccc(CC(=O)NCCN2CCOCC2)cc1	.	4
Cc1cc(C)c2c(=O)n(C(=O)c3ccco3)sc2n1	15	.
CCOC(=O)CSc1nc2sccn2c1C=Nc1cc(Cl)cc(Cl)c1	-2.0	.
N#CCCNc1ccccc1C(=O)O	.	10

The listing (from the top)
SMILES	MgrA-DNA mod	S aureus helic
CCOC(=O)/C(C#N)=C(\C)c1ccc(NC(C)=O)cc1	-0.2	.
COc1cc2c(cc1OC)/C(=C/C(N)=O)NC(C)(C)C2	3.7	1
O=C(c1ccc(NS(=O)(=O)c2ccccc2)cc1)N1CCN(Cc2ccc3c(c2)OCO3)CC1	3.5	27
Cc1nc2c(c(C)c1CCC(=O)NCC(N)=O)c(=O)n(C)c(=O)n2C	.	-19
COc1ccc(NC(=O)CC(NC(C)c2ccccc2)C(=O)O)cc1 (stereo not drawn)	.	26
C=CCC1C(=O)N(S(=O)(=O)c2ccc(Cl)cc2)N=C1CCC (stereo not drawn)	2.1	.
CCc1ccccc1Nc1nc(N)nc(CSc2nncn2C)n1	.	-9
CC(=O)N1CC(C)Oc2ccc(S(=O)(=O)NC(C)c3ccccc3)cc21 (stereo not drawn)	.	29
O=C1c2ccccc2NC(c2ccccc2)N1NS(=O)(=O)c1ccccc1 (stereo not drawn)	0.8	-5
N#CC(C#N)=CNc1cc(-c2ccc(Cl)cc2)sc1C(N)=O	.	-11
Cc1cc(C)nc(Nc2nc3ccccc3c(=O)[nH]2)n1	1.4	1
Cc1ccc(NC(=O)Nc2ccc(SC(F)F)cc2)cc1	.	-21
O=C(NC1CCCC1)c1cc(-c2ccccc2O)no1	1.9	-3
CC(C)CCn1c(=O)c2ccccc2n2c(CN(C)Cc3ccccc3)nnc12	.	-2
C=CCNC(=O)C(C)Oc1ccccc1 (stereo not drawn)	-1.4	-4
c1ccc(-c2csc(Cc3c[nH]c4ccccc34)n2)cc1	0.0	-1
O=S(=O)(NC(=S)NC1CCCCC1)c1ccccc1	.	3
Cc1cc2c3c([nH]c2cc1S(=O)(=O)N(Cc1ccco1)C1CCCCC1)CCCC3=O	.	12
Cc1nc2cccnc2n1-c1ccc(CC(=O)NCCN2CCOCC2)cc1	.	4
Cc1cc(C)c2c(=O)n(C(=O)c3ccco3)sc2n1	15	.
CCOC(=O)CSc1nc2sccn2c1C=Nc1cc(Cl)cc(Cl)c1	-2.0	.
N#CCCNc1ccccc1C(=O)O	.	10
O=C(Nc1ccc2nc(NC(=O)c3ccccc3Cl)sc2c1)c1ccccc1Cl	-1.4	.
CC(=O)NS(=O)(=O)c1ccc(C)cc1	.	-1
Cc1cc(=O)[nH]c2ccc(S(=O)(=O)NC3CCCCC3)cc12	.	4
C[n+]1ccc(/C=C/c2ccc(N3CCCC3)o2)cc1	23	57*
NC(=O)c1ccc(NC(=O)CCCSc2ccccc2)cc1	.	38
Nc1c(-c2ccccc2)cnc2ncnn12	-2.5	.
Cc1ccc2c(c1)-c1onc(C(=O)NCCCN3CCCCC3)c1CO2	-0.3	-1
COCc1cc(C)nc2sc(C(=O)c3ccccc3)c(NC(=O)c3ccccc3)c12	-3.3	.
NC(=O)COc1ccc(-c2noc(COc3ccccc3)n2)cc1	.	3
COc1cc(C=NCc2ccco2)ccc1O	0.1	-15
COc1ccccc1-c1c(C(F)(F)F)oc2c(CN3CCOCC3)c(O)ccc2c1=O	2.5	.
CN1CCN(Cc2c(O)ccc3cc(Br)ccc23)CC1	.	-8
CCN(CC)C(=O)/C(C#N)=C/c1ccc(OC)cc1	.	-27
COc1cccc(Oc2ccc(OC)cc2C(=O)O)c1	-8.9	.
Cn1c(CC2CCS(=O)(=O)C2)n[nH]c1=S (stereo not drawn)	.	-15
COc1ccc(CC(=O)NC2CCN(S(=O)(=O)c3ccccc3C(=O)O)CC2)cc1OC	-4.0	3
CCOC(=O)c1csc(NC(=O)CC)n1	.	-18
CC(=O)Nc1cc(-c2ccc(C(C)(C)C)cc2)sc1C(N)=O	4.4	.
COc1cc(C2NC(=O)C(C#N)=C(SC)S2)cc(OC)c1OC (stereo not drawn)	-2.1	.
COC(=O)c1cc2c(s1)-c1cc(F)ccc1OC2	.	22
CC1(C)C(=O)N(O)C(C)(C)C(=O)N1O	-0.2	.
CCN(C(=O)Cn1cccc1C1=NC(c2ccccc2)CO1)c1cccc(C)c1 (stereo not drawn)	-0.1	12
O=C1NC(=O)C2C1C1(c3ccccc3)C(=O)C2(c2ccccc2)C(c2ccc3c(c2)OCO3)=C1c1ccc2c(c1)OCO2 (stereo not drawn)	-0.7	.
CCn1c2ccccc2n2c(C(=O)OC)c(C)nc12	-0.5	12
O=C(CSc1nccc(=O)[nH]1)c1cccs1	-1.4	8
Cc1cccc(N(Cc2ccccc2)C(=O)c2nc3nc(C)cc(C)n3n2)c1	.	-7
Cn1cccc1C#N	.	-3
OCc1ccccc1CN1CCCCC1	1.6	15
C=CCN(CC=C)S(=O)(=O)c1ccc(C(=O)N=c2sc3ccccc3n2CC)cc1	.	20
O=C(O)C(Cc1ccccc1)N1C(=O)/C(=C/c2ccccc2)SC1=S (stereo not drawn)	.	6
C=CCn1c(COC)nnc1SCC(=O)c1ccc(Br)cc1	7.4	7
COC(=O)c1ccc(O)c(/C=N/N(CCO)C2=NS(=O)(=O)c3ccccc32)c1	-0.9	4
FC(F)C(F)(F)c1cc(-c2ccccc2)n[nH]1	0.7	8
CS(=O)(=O)Nc1ccc(C2=NN(C(=O)c3ccccc3)C(c3ccco3)C2)cc1 (stereo not drawn)	.	9
COc1cc(NC(=O)CNC(=O)Cn2c(C)cc3ccccc3c2=O)cc(OC)c1OC	.	30
CCCn1c(=O)n(C)c(=O)c2c(SC(C(=O)NC(N)=O)C(C)C)nc(CC(C)C)nc21 (stereo not drawn)	.	-12
CC1=C(c2ccc(C)c(C)c2)S(=O)(=O)NC1=O	-1.8	5
O=C(Cn1nc(-c2ccccc2)ccc1=O)Nc1ccc(N2CCN(C(=O)c3ccccc3)CC2)cc1	0.6	-16

(next part)
SMILES	MgrA-DNA mod	S aureus helic
Clc1ccc2c(c1)nnn2CN1CCN(Cn2nnc3cc(Cl)ccc32)C1	-0.3	.
O=C(CSc1c2c(nc3ccc(Cl)cc13)CCCC2)NCCN1CCOCC1	0.7	10
CC1(C)CC(=O)c2cnc(NC(=O)CSc3nc4ccccc4o3)nc2C1	0.7	1
Cc1nc(SCc2c(F)cccc2Cl)[nH]c(=O)c1Cc1c(F)cccc1Cl	-2.8	.
CCCCn1c(SCN2C(=O)c3ccccc3C2=O)nc2cc(S(N)(=O)=O)ccc21	.	-12
CC1=CC(C)=Nc2ccc(C)cc2N1	.	23
Cc1cc2ncn(CC(C)C)c2cc1C	-0.7	3
Cc1cc(C(=O)Nc2cccc(OC(C)C)c2)c(C)o1	-3.9	5
Cc1ccc(C)c(N=C2N(C)CC(=O)N2Cc2cccnc2)c1	.	-5
CCNc1nc(SC)ncc1F	.	8
O=C(CC1CCCC1)OCc1ccc(Cl)cc1	3.8	2
Cc1ccc(S(=O)(=O)/N=C2\NC(=O)CS2)cc1	4.5	5
COc1ccc(CCNC(=S)Nc2ccc(Cl)cc2C)cc1OC	-1.2	.
CNc1nc(-c2ccc(Cl)s2)cs1	4.0	.
O=C(c1cccnc1Cl)N(Cc1ccccc1)Cc1ccccc1	1.5	11
OC(COc1ccccc1)CN1CCCCC1 (stereo not drawn)	-1.8	12
CCn1cc(CCCC(=O)NCCN2CCN(C)CC2)c2ccccc21	0.1	0
CC1CC(C)CN(c2ncnc3scc(-c4ccccc4)c23)C1 (stereo not drawn)	-0.1	1
COc1ccc(C2SCCN2S(C)(=O)=O)cc1Br (stereo not drawn)	.	2
Cc1cccc(NC(=S)Nc2ccc(C)c(NS(C)(=O)=O)c2)c1	0.1	.
Cc1nnc2n1NC(c1ccc(Cl)cc1)C(C(=O)N1CCCCCC1)S2 (stereo not drawn)	.	-20
CCCc1nc(NC2CCCCC2)c(C#N)c2c1CCCC2	1.1	11
O=C(CSc1ncccn1)N1CCc2ccccc2C1	-2.0	6
O=S(=O)(NCCSCc1ccco1)c1ccc(Br)cc1	.	-26
CN(C(=O)c1nc2ccccc2nc1Cl)C1CCCCC1	0.3	-5
Cc1ccccc1-c1nnn(CC(=O)c2ccc(S(=O)(=O)N3CCCC3)cc2)n1	.	-1
Cc1cccc2cc(/C=C3\NC(=S)NC3=O)c(N3CCOCC3)nc12	.	-13
NC(=O)C1CCN(c2ncccc2[N+](=O)[O-])CC1	-2.4	.
O=C(Nc1nc2ccc(Cl)cc2s1)c1ccc(C(=O)c2ccccc2)cc1	-3.7	6
Cn1c(=O)c2c(nc(NCC3CCCO3)n2Cc2cccc3ccccc23)n(C)c1=O (stereo not drawn)	.	13
O=c1[nH]c(-c2ccc(Cl)cc2)nc2sc3c(c12)CCCC3	-4.2	0
Cc1nnc(N(C)C(=O)Cc2ccc3c(c2)OCO3)s1	-7.3	5
O=C(CSc1nc2ccccc2o1)N1CCN(S(=O)(=O)c2ccccc2)CC1	.	17
CCO/C(C)=N\Oc1nc2nonc2nc1O/N=C(/C)OCC	1.6	-4
CC(Oc1ccccc1)C(=O)Nc1ccccc1 (stereo not drawn)	1.8	-3
COc1ccc(C(=O)OCc2c(C)noc2C)cc1S(=O)(=O)N1CCCc2ccccc21	.	-1
Cc1c(C)c2c(c(C)c1OCc1ccccc1)C(CO)C(C)(C)O2 (stereo not drawn)	-2.7	12
c1ccc2nc(-c3nc4ccccc4o3)ccc2c1	.	-38
CC12CCC(CC1=NNC(=O)Nc1ccccc1)C2(C)C (stereo not drawn)	.	-6
Cn1c(-c2oc3nc(-c4ccccc4)cc(-c4ccco4)c3c2N)n[nH]c1=S	.	14
O=C(Nc1cc(O)cc([N+](=O)[O-])c1)c1nn2c(C(F)(F)F)cc(-c3cccs3)nc2c1Cl	-0.4	.
c1ccc(-c2[nH]ncc2CN2CCN(c3ccccn3)CC2)cc1	-1.8	.
O=C(O)CCOc1ccc(Cl)cc1	-0.2	.
COc1ccc(N2CCN(C(=O)C(CC(C)C)NS(=O)(=O)c3ccc4c(c3)oc(=O)n4C)CC2)cc1 (stereo not drawn)	.	-21
COc1ccc(NC(=O)COc2ccc(C)cc2)cc1	-0.2	5
CCC1(c2cccc(OC)c2)CCCCNC1=O (stereo not drawn)	-0.9	.
COCCn1c(O)c(/C=N/N=C2/C(=O)N(C)c3ccccc32)c(=O)[nH]c1=S	.	10
C=CCN1C(=O)C2C(C(=O)NC)C3C=CC2(O3)C1C(=O)NC1CCCCC1 (stereo not drawn)	2.8	1
CN(c1ccccc1)S(=O)(=O)c1ccc(Cl)c(C(=O)N2CCOCC2)c1	.	-7
Cc1cc(C)nc(SC(C)C(=O)Nc2ccccc2C#N)n1 (stereo not drawn)	-0.7	22
Cn1c(C(=O)N2CCCc3ccccc32)cc2c(=O)n3ccccc3nc21	.	-9
CN(C)c1ccc(C2NC(=S)NC3=C2CCc2ccccc23)cc1 (stereo not drawn)	1.6	8
Cc1onc(-c2c(Cl)cccc2Cl)c1C(=O)N(C)c1nnc(C(F)(F)F)s1	0.3	.
COc1ccc(CC(=O)N2C(=O)c3ccc(N)cc3C2=O)cc1OC	.	22
Cn1c(SCC(=O)N/N=C/c2ccccc2)nc2ccccc21	0.4	9
Cc1ccc2c(c1)C(=O)CCCO2	.	4
N#Cc1cc(C(=O)c2cccs2)c(C(F)(F)F)nc1SCc1ccccc1	-2.1	4
Cc1cccc(N/C(=N\S(=O)(=O)c2ccc(Cl)cc2)Nc2nc(C)cc(C)n2)c1	1.1	8
COc1cccc(C(=O)Cn2c(=O)n(CCc3ccccc3)c(=O)c3cc(OC)c(OC)cc32)c1	-1.1	9
CSC(=NCc1ccccn1)NC#N	-1.2	.

Single entries from above:
Entry for `Cn1c(SCC(=O)N/N=C/c2ccccc2)nc2ccccc21` under S aureus helic: 9
Entry for `Cc1onc(-c2c(Cl)cccc2Cl)c1C(=O)N(C)c1nnc(C(F)(F)F)s1` under MgrA-DNA mod: 0.3

Further records.
SMILES	MgrA-DNA mod	S aureus helic
OCCn1c(C(F)(F)F)nc2ccccc21	-0.8	.
CC1(C)N=C(NS(=O)(=O)c2cc(C(F)(F)F)cc(C(F)(F)F)c2)N(c2ccccc2)O1	-2.0	.
Cn1ccsc1=NC(=O)c1cc(Cl)c2c(c1)OCCCO2	.	-8
O=C(c1cccs1)N1CCCCC1	-1.0	1
O=C1CCC(C(=O)NCc2ccccn2)=NN1	.	18

The list is partial. The share of hits here may be higher or lower than overall.
